# Screens from PubChem.
# VACV mCherry inh – inhibitors of vaccinia virus infection (mCherry reporter signal); Vaccinia virus mCherry reporter infection, fluorescence; about a quarter of the inactives have no number; Potency, µM (highest dose often 36.5 µM), for the others: at the highest dose activity change, negative = inhibition, most hits filed as inhibitors; hit rate 0.63% among 310,000; AID 720579; active = well fitted inhibition curve with a large enough effect; inconclusive = small, poorly fitted or top-dose-only effect; inactive = no such curve, though single readings can be large or run the other way; tested in A549 cells; note: nearly all actives have a fitted effect of over 35% in size; inactives centre near -10
# VACV Venus inh – vaccinia inhibition (Venus reporter); Potency, µM (titrated, usually from 36.5 µM), for inactives: top-dose activity change, negative = inhibition, most hits filed as inhibitors; hit rate 0.46% among 330,000; Vaccinia virus Venus reporter expression, fluorescence; active means well fitted inhibition curve with a large enough effect; inconclusive means small, poorly fitted or top-dose-only effect; inactive means no such curve, though single readings can be large or run the other way; tested in A549 cells; note: nearly all actives have a fitted effect of over 30% in size; inactives centre near -10
# An asterisk follows results filed as active; i = inactive; ? = inconclusive; · = not tested or not shown; [ ] = dose if it differs, or a comment. % is set by controls: 0 for no effect and ±100 for the full control effect; potency is the fitted concentration of half-maximal effect.
SMILES,VACV mCherry inh,VACV Venus inh
CC(Sc1nnc(C2CCCCC2)n1N)C(=O)NCc1ccc2c(c1)OCO2 (configuration not stated),·,-13.7%
O=C(O)C(CC1CCCCC1)N1CCS(=O)(=O)CC1 (configuration not stated),-15.3%,-3.8%
COc1ccc(C(O)c2nc(-c3cccc(O)c3)cs2)cc1 (configuration not stated),i,-6.9%
N#Cc1c(NCCCO)nc(NCc2ccccc2)c2c1CCN(Cc1ccccc1)C2,·,?
Cc1c(NC(=O)c2cc(-c3cccs3)on2)c(=O)n(-c2ccccc2)n1C,-2.9%,-16.3%
CO/N=C(/CS(=O)(=O)c1ccc(Br)cc1)c1ccc(OC)cc1,?,-23.4%
C#CCOCCOCCOCCNc1nc(N2CCN(C(=O)C([C@@H](C)O)n3cc([C@@H](N)CCCCN)nn3)CC2)nc(N2CCN(C(=O)[C@H](CC(N)=O)n3cc(C(N)[C@@H](C)CC)nn3)CC2)n1 (some centres not stated),?,-7.7%
CCc1cccc2c1NC(=O)C21N2CCCC2C(C(=O)c2ccc3ccccc3c2)C12C(=O)Nc1ccccc12 (configuration not stated),-15.9%,-14.7%
Cc1ccc(CNC(=O)C2CCCN(c3nnc(-n4c(C)ccc4C)s3)C2)cc1 (configuration not stated),-28.9%,-27.2%
CCC1=C(OC(=O)N(CC)CC)N2C(=O)OC(=NCc3ccccc3)[C@]2(C)[C@H]2C1=CC[C@H]1C(=O)NC(=O)[C@H]12,i,-16.0%
O=C(Nc1ccc(NC(=O)c2ccc([N+](=O)[O-])cc2[N+](=O)[O-])cc1)c1ccco1,-20.4%,-4.3%
CCN(CC)S(=O)(=O)c1cccc(NC(=O)c2ccc(Br)cc2)c1,?,-25.4%
CC(=O)N(Cc1ccco1)C1(C(=O)NC2CCCCC2)CCCCC1,-20.6%,-17.1%
COc1ccc(C(=O)CN2C(=O)NC3(CCc4ccccc43)C2=O)c(OC)c1 (configuration not stated),i,-17.7%
Cc1ccc(/C=N/NC(=O)CNC(=O)c2cccc([N+](=O)[O-])c2C)o1,i,-13.8%
Cn1cccc1C1C(C#N)=C(N)OC2=C1C(=O)CC(C)(C)C2 (configuration not stated),i,-6.1%
O=C(CCOc1ccccc1)Nc1nnc(-c2ccc3c(c2)OCCO3)o1,i,-20.8%
Cc1cc(N2CCN(C(C(=O)NC3CCCC3)C(C)(C)C)CC2)c2ccccc2n1 (configuration not stated),?,-24.9%
CC(=O)N1CCN(c2ccccc2NC(=O)c2ccc(-c3cccc([N+](=O)[O-])c3)o2)CC1,i,-8.9%
CCCCCCN1C[C@H](n2cc(C3CC3)nn2)[C@@H](O)C[C@@H]1c1ccc(Cl)cc1,-13.0%,-16.4%
CCc1ccc(NC(=O)c2ccc3c(=O)n4c(nc3c2)CCCCC4)cc1,-6.2%[7.34 µM],-3.8%[7.34 µM]
Cn1ncc(N)c1C(=O)Nc1cccc(C(F)(F)F)c1,·,-17.6%
Cc1ccc(CN2CC(N3CCCC3)CS2(=O)=O)cc1 (configuration not stated),3.2%,-9.1%
O=C(COC(=O)c1cccc(O)c1)Nc1ccc(OC(F)F)cc1,-8.4%,-11.2%
C[C@@H](C(=O)Nc1ccc2ccccc2c1)[C@H]1C[C@]1(C)[C@H](NC(=O)c1cnccn1)c1ccccc1,i,-17.9%

# Filtered by structure, those above with bromine.
SMILES,VACV mCherry inh,VACV Venus inh
CO/N=C(/CS(=O)(=O)c1ccc(Br)cc1)c1ccc(OC)cc1,?,-23.4%
CCN(CC)S(=O)(=O)c1cccc(NC(=O)c2ccc(Br)cc2)c1,?,-25.4%

# New compounds follow:
SMILES,VACV mCherry inh,VACV Venus inh
Cc1ccc(NC(=O)CSc2nnc(-c3cc(C)[nH]n3)n2N)cc1,i,-10.2%
CC1(C)CC(=O)C([N+](=O)[O-])=C(NCCCO)C1,-9.8%,-3.6%
COc1cccc2sc3cc(NCCCN4CCOCC4)ccc3c(=O)c12,-10.7%,-26.3%
O=C1Nc2ccccc2OC1CC(=O)N1CCCC1 (configuration not stated),13.0%,-5.1%
COc1ccc(CN2CC(C(N)=O)Oc3ccccc32)cc1F (configuration not stated),-1.9%,-6.6%
COc1ccc(CNC(=O)c2ccc(-c3nc(CSc4ccc(C)cc4)c(C)o3)cc2)c(OC)c1,-21.2%,-11.1%
CCN(CC)CCNCC(=O)N1c2ccccc2CCc2ccc(NC(=O)OC)cc21,-24.3%,-4.9%
CCOC(=O)N1CCN(C(=S)Nc2ccccc2C(C)C)CC1,i,-17.8%
Cc1ccccc1C(=O)NC(CC(C)C)C(=O)OCC(=O)c1c(N)n(C)c(=O)n(C)c1=O (configuration not stated),-4.9%,-7.1%
COC(=O)CSc1nnc(-c2ccoc2C)n1-c1ccc(OC)cc1,-11.7%,7.0%
CCCC(=O)c1cc2ccccc2oc1=O,-7.3%,-3.0%
CC1CCC(C(=O)NC(C(=O)Nc2ccccn2)C(C)C)CC1 (configuration not stated),8.9%,-8.5%
COc1ccccc1Cn1cc(C(=O)c2ccc(Cl)cc2)c(=O)c2cc3c(cc21)OCCO3,-16.5%,-11.6%
COc1ccccc1C(=O)N/C(N)=N/c1nc2ccccc2o1,·,0.6%
CN1CCN(C(=O)c2cc(-c3ccco3)on2)CC1,-13.9%,-10.7%
O=C(CO/N=C/c1ccc(OC(F)F)cc1)NCc1ccc(F)cc1,-10.9%,-15.5%
CCN(C(=O)CSc1nc2ccc(Cl)cc2[nH]1)C1CCS(=O)(=O)C1 (configuration not stated),-5.4%,-13.6%
CCOc1ccccc1C(=O)NCC(=O)NCCCc1ccccc1,-21.4%,-7.3%
O=C(Nc1nc2c(F)cc(F)cc2s1)c1ccccn1,?,?
CCOP(=O)(OCC)C(Nc1cccc([N+](=O)[O-])c1)c1ccccc1 (configuration not stated),-0.3%,-12.0%
Cc1c(Cl)cccc1NC(=O)C(C)n1nc(C)c2c(C)n(-c3ccccc3)nc2c1=O (configuration not stated),-8.2%,-7.9%
CCCCc1ccc(NS(=O)(=O)N(C)C)cc1,-10.5%,-8.9%
CCOC(=O)c1ccc(N2C(=O)c3[nH]nc(-c4ccc(C)cc4)c3C2c2ccc(O)c(OCC)c2)cc1 (configuration not stated),-16.8%,-20.0%
CC(C)C1C(=O)N(Cc2cn(Cc3ccco3)nn2)CCS(=O)(=O)N1Cc1ccc(-c2ccccc2)cc1 (configuration not stated),-9.6%,-20.0%
CCC1CN(CCNC(=O)c2scc3c2OCCO3)Cc2cc(OC)ccc2O1 (configuration not stated),-10.5%,-1.5%

# Of the compounds above, 2 contain a cyano group:
SMILES,VACV mCherry inh,VACV Venus inh
N#Cc1c(NCCCO)nc(NCc2ccccc2)c2c1CCN(Cc1ccccc1)C2,·,?
Cn1cccc1C1C(C#N)=C(N)OC2=C1C(=O)CC(C)(C)C2 (configuration not stated),i,-6.1%

# A draw from above in order of length of the SMILES, largest number first.
SMILES,VACV mCherry inh,VACV Venus inh
COc1ccc(CNC(=O)c2ccc(-c3nc(CSc4ccc(C)cc4)c(C)o3)cc2)c(OC)c1,-21.2%,-11.1%
CCOC(=O)N1CCN(C(=S)Nc2ccccc2C(C)C)CC1,i,-17.8%
CN1CCN(C(=O)c2cc(-c3ccco3)on2)CC1,-13.9%,-10.7%

# The list continues:
SMILES,VACV mCherry inh,VACV Venus inh
O=C1CSC(c2ccccc2Cl)c2cc(Cl)ccc2N1 (configuration not stated),-15.8%[60.7 µM],-3.3%[60.7 µM]
O=C1CN(C(=O)COC(=O)c2ccccc2NC(=O)c2ccco2)c2ccccc2N1,-0.2%,-21.1%
O=C1[C@@H]2Cc3c([nH]c4ccccc34)C(c3ccccc3)N2C(=O)CN1C1CC1 (some centres not stated),-18.6%,-15.1%
Cc1cc(C)c2c(c1)/C(=N/NC(=S)Nc1ccc(F)cc1)CCC2,-9.4%,-10.5%
COc1ccc(C2(C(=O)Nc3ccc(C)c(C)c3)CCOCC2)cc1,-7.3%,-16.1%
O=c1cc(CO)oc(CN2CCN(c3cccc(C(F)(F)F)c3)CC2)c1O,-10.9%,-11.8%
Cc1cc(OCC(=O)OCC(=O)N(C)c2c(N)n(Cc3ccccc3)c(=O)[nH]c2=O)ccc1Cl,-14.4%,-12.4%
CC(=O)N1c2ccc(S(=O)(=O)N3CCOCC3)cc2CC1C (configuration not stated),-14.7%,-14.8%
CC1CCn2c(nc3cc(C(=O)NCCc4ccccc4)ccc32)C1 (configuration not stated),-11.0%[7.34 µM],-2.9%[7.34 µM]
Cc1ccc(C)c(S(=O)(=O)N2CCCC2CNC(=O)c2ccc([N+](=O)[O-])cc2)c1 (configuration not stated),-23.1%,-7.7%
Cc1cc(=O)oc2c3c(cc(OCC(=O)N[C@H](C(=O)O)c4ccccc4)c12)OC(C)(C)CC3,-4.6%,4.9%
CCc1ccccc1NNC(=O)c1snnc1C,i,-18.7%
CCOc1ccc2nc(NC(=O)c3c([N+](=O)[O-])cnn3CC)sc2c1,-9.0%,-13.5%
CCCCCC(=O)N1C[C@@H](O)[C@H](n2cc(COC(=O)c3ccccc3)nn2)C[C@@H]1c1ccc(Cl)cc1,-1.4%,-16.1%
C[C@H](NC(=O)OCc1ccccc1)c1nnc([C@H](Cc2ccccc2)NC(=O)OC(C)(C)C)o1,?,-17.5%
OCC[C@@H]1C[C@H](O)[C@@H](O)[C@]2(OCCc3cc(Cl)ccc32)O1,5.9%,-0.1%
COc1ccc(OCCNS(=O)(=O)c2ccccc2)cc1,·,6.4%
O=C(NC1=NCCS1)c1ccccc1,-10.4%,2.5%
O=C(c1ccccc1)C1CCc2occc2C1=O (configuration not stated),-4.4%,-13.6%
S=C(c1ccc(N2CCCC2)cc1)N1CCCCC1,-1.3%,-11.9%
Cc1cc(C)c(C)c(S(=O)(=O)N(C)CCc2ccccn2)c1C,-15.0%,-10.3%
CC(=O)Nc1ccc2nc(NC(=O)CS(=O)(=O)c3ccc(C)cc3)sc2c1,-10.7%,-7.8%
COc1cccc(N2CC(NC(=O)c3ccc4c(c3)OCO4)CC2=O)c1 (configuration not stated),-10.0%[7.34 µM],-4.5%[7.34 µM]
O=S(=O)(Nc1ccc(Cl)cc1)c1cccc(S(=O)(=O)c2ccc(Cl)c(Cl)c2)c1,-8.7%,8.8%
Cc1ccc(-c2cc(C(=O)NCCCn3ccnc3)c3ccccc3n2)s1,5.2%,-20.7%

# (continued)
SMILES,VACV mCherry inh,VACV Venus inh
Cc1cccn2c(=O)c3cc(C(=O)NC(C)C)n(C)c3nc12,-9.0%,-6.1%
COC(=O)Nc1nc2ccc(SC(C)C)cc2[nH]1,?,?
O=C1CC(C(=O)Nc2ccc(F)cc2)n2cnnc2N1 (configuration not stated),2.9%,-10.7%
N#Cc1cccc(S(=O)(=O)NNC(=O)C23CC4CC(CC(C4)C2)C3)c1,-6.1%,-16.8%
Cc1cccc(OCC(=O)Nc2cccc(-c3nc4ccccc4s3)c2)c1,-15.0%,-10.4%
NC(=O)/C(=C\c1ccncc1)c1cccc2ccccc12,i,-10.2%
COc1ccc(C(=O)Nc2cc(OC)c(Cl)cc2Cl)cc1,-1.8%,1.4%
CCN(CC)c1ccc(/C=N/Nc2nc(C)cc(=O)[nH]2)cc1,i,-9.6%
COc1cc2cc(CNc3ccccc3)c(=O)n(CC(=O)Nc3cc(C)cc(C)c3)c2cc1OC,-4.2%,-3.7%
C[C@@H]1CN([C@@H](C)CO)C(=O)c2cc(Br)cnc2O[C@H]1CN(C)C(=O)c1ccncc1,-12.5%,-0.6%
CNC(=S)N/N=C/c1ccc(-c2ccc(C(=O)O)cc2)o1,-16.6%,-12.7%
C[C@@H]1C=C[C@](Cc2ccccc2)(C(=O)NCCc2c[nH]c3ccccc23)N1C(=O)c1ccccc1,?,-13.2%
CC12CCC(C(=O)O)(c3nc4cc([N+](=O)[O-])ccc4nc31)C2(C)C (configuration not stated),i,-5.1%
CC1CCCCN1S(=O)(=O)c1ccc2c(c1)C(C)(C)C(=O)N2C (configuration not stated),-9.0%,-6.2%
Cc1cccc(NC(=O)C2C(C(=O)O)C3C=CC2C32CC2)c1C (configuration not stated),·,-19.2%
CCOc1ccccc1CNC(=O)c1ccc2c(c1)N(Cc1ccc(C)cc1)CCS2,-23.5%,-20.6%
O=C(Nc1ccc(C(=O)N2CCCCC2)cc1)c1ccc(Br)cc1,·,?
O=C(CSc1ccc(Cl)cc1)NC1CCCc2ccccc21 (configuration not stated),-27.3%,-26.5%
COc1ccc(CNC(=O)c2sc(=S)n(-c3ccccc3)c2N)cc1,-2.8%,-18.1%
CCOc1cc2ccccc2cc1C(=O)Nc1ccccn1,-4.6%,-16.9%
Cc1ccc(-c2ccc(CN3C(C)C(=O)N(Cc4cn(Cc5ccco5)nn4)CCS3(=O)=O)cc2)cc1 (configuration not stated),i,-26.5%
CCn1c(SCc2ccc(C)cc2)nnc1-c1nn(-c2ccccc2)ccc1=O,·,-24.7%
CCOC(=O)C1=C(c2ccccc2)Nc2ncnn2C1c1cc(OC)ccc1OC (configuration not stated),-19.5%,-9.9%
O=S(=O)(NC1CCCCC1Oc1ccccc1)c1ccccc1 (configuration not stated),-19.3%,-10.9%
COCC(=O)Nc1ccc2c(c1)[C@@H]1C[C@H](CC(=O)OC)O[C@H](CO)[C@@H]1O2,i,-12.4%
O=C(O)Cn1cc(C(=O)c2ccccc2F)c2ccccc21,-10.3%,-1.6%
COc1ccc(CNC(=O)C2(C)Cc3c(-c4ccc5c(c4)OCO5)ccnc3O2)cc1OC (configuration not stated),-13.9%,?
COc1cc(CCC(=O)Nc2ccc(C)c(S(=O)(=O)N3CCCCCC3)c2)cc(OC)c1OC,?,-26.7%
COc1ccc(Cl)cc1-n1c(C)ccc1C,-9.7%,-0.5%

# Random draw from the library. About 0.82% of those tested had a hit in this group.
